Vif TR-FRET – inhibitors of Vif binding to APOBEC3G peptide, primary screen, biochemical, TR-FRET, GST-Vif 1-94, biotin-A3G peptide, dose response retest (AID 1117319). TR-FRET GST-Vif / biotin-A3G peptide binding; higher % means a stronger effect; test concentration not given here; strong numbers were not always called active. one-dose inhibition, %; IC50 in µM for titrated hits. actives 0.57% (n = 260,000);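 active means above the screen mean plus three standard deviations and confirmed in dose response; inconclusive means results disagree or hit not tested in dose response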;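 further: Vif residues 1-94 fused to GST binding biotinylated APOBEC3G peptide 110-148; 0% = full assay without inhibitor and 100% = GST in place of GST-Vif; retest series ran down from 100 µM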
FGF22 binding – shifts melting point of recombinant human FGF22. Q9HCT0. recombinant FGF22 thermal shift, SYPRO orange fluorescence; percent of sucrose octasulfate shift, DMSO zero. calls only at 9.99 µM. actives 1.5% (n = 340,000);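 active means melting point raised past a set limit in the mean and every replicate; inconclusive means no clear call; three in four hits are not shown here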
ALR H2O2 inh – human ALR oxidase inhibition via reduced H2O2; purified ALR, DTT oxidation, H2O2 HRP-luminol luminescence; actives 3.8% (n = 290,000); P55789; inhibition, % (no concentration beside the values);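 active means mean and each replicate at 75% or more; inconclusive means only one of the two met; inactive means neither met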;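 further: stock transfer was 7.5 nL into about 7.5 µL; 0% = neutral wells and 100% = wells with inactivated enzyme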
Ecoli growth – blocks Escherichia coli growth; OD600, 23 h; stronger effect = lower value; OD600 absorbance (concentration not given with the values); actives 0.21% (n = 330,000); AID 1053175;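 active means OD600 absorbance below the run mean of sample wells minus 3.6 SD, in any replicate, cut at about 0.56 in these data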;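 further: stock transfer was 300 nL into about 60 µL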
Ecoli rRNA inh – inhibitors of bacterial rRNA selective over humanized ribosomes; actives 1.6% (n = 350,000); GFP signal change (wild-type ribosome), % (no concentration beside the values); E. coli WT GFP vs humanized-ribosome RFP mutants, fluorescence, 24 h; stronger effect = lower value; DMSO median 0, no signal -100;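 active means significant combined selectivity score with lowered wild-type GFP, culture density cut under 30%, mutant RFP and density less affected; inactive means any of these conditions unmet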; further: one replicate is shown; some compounds called inactive have numbers as strong as hits
AF4-AF9 inh – blocks AF4 peptide binding to human AF9; AID 651704; P42568; actives 0.47% (n = 350,000); inhibition, % at 10 µM; AlphaScreen, biotin-AF4 peptide binding to FLAG-AF9;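 active means every replicate reaching a set inhibition limit, whatever the replicate mean, cut at about 25% in these data; inconclusive means mean inhibition reaches that limit but some replicates miss it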;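 further: 0% = plate neutral control median and 100% = total signal loss; the record names both 10 and 1 µM as test concentration; the first replicate is given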
Target sequence (P42568 whole entry, looked up): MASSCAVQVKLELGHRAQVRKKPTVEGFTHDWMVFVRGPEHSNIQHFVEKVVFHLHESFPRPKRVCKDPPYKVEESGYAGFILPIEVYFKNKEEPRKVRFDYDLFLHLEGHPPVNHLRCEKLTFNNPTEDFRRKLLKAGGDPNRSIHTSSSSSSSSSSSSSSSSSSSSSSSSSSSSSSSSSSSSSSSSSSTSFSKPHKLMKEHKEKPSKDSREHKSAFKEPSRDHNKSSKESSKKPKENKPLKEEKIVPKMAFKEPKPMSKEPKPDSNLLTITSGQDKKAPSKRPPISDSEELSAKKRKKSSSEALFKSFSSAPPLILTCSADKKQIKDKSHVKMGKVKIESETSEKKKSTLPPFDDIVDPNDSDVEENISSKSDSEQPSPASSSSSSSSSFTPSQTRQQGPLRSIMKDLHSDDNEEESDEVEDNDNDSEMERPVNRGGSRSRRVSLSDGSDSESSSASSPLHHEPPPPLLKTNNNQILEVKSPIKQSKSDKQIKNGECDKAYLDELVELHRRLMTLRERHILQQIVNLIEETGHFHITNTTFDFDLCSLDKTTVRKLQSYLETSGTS
HNF4A DNA FP – change in binding of human HNF4 alpha to DNA; P41235; HNF4a-FITC DNA binding, fluorescence polarization, 1 h; activity change, % at 10 µM; actives 0.3% (n = 360,000); in the data active means activity change above about 30%, passing the limit was not always enough;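 further: controls were the assay level and a saturating level of protein; the project sought stronger binding though the title names inhibitors; some compounds called inactive have numbers as strong as hits; positive values seem to mean higher polarization but the record does not say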
Target sequence (P41235 whole entry, looked up): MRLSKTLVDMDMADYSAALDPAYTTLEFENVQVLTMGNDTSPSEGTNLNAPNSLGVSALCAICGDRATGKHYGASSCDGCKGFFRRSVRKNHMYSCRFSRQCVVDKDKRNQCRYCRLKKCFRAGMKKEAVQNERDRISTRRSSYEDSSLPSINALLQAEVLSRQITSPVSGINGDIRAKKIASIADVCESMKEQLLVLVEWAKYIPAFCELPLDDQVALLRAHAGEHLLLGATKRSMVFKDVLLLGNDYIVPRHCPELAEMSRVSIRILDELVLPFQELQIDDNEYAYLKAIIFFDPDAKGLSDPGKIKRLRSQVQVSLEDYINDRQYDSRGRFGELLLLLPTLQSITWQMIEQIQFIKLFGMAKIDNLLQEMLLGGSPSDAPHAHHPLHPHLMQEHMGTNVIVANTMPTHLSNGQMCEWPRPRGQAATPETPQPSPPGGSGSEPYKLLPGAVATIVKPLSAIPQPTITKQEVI
Ecoli rRNA inh OD600 – further read-out of Ecoli rRNA inh, marked with its call; OD600 change, %; measured here: OD600 growth;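 optical density of the mix in the first replicate; 0 = DMSO median and -100 = no signal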
Ecoli rRNA inh RFP – further read-out of Ecoli rRNA inh, marked with its call; RFP signal change, %; measured here: RFP humanized mutant strains;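 first replicate; 0 = DMSO median and -100 = no signal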
An asterisk follows results filed as active; i = inactive; ? = inconclusive; / = not tested or not shown; + = active, no number.

compound	Vif TR-FRET	FGF22 binding	ALR H2O2 inh	Ecoli growth	Ecoli rRNA inh	Ecoli rRNA inh OD600	Ecoli rRNA inh RFP	AF4-AF9 inh	HNF4A DNA FP
O=C(N[C@@H]1CC[C@H](CCNS(=O)(=O)c2ccccc2Cl)O[C@@H]1CO)c1ccccc1	/	i	/	/	2.9	-5.1	-0.8	-1.1	/
COc1ccc(C(=O)N[C@H]2COC(C)(C)O[C@H]2c2ccccc2)cc1	?	/	-3.8	0.657	/	/	/	/	3.6
C[C@H](CO)N1C[C@H](C)[C@@H](CN(C)C)Oc2ccc(NC(=O)Nc3ccc4c(c3)OCO4)cc2CC1=O	/	i	/	/	4.4	1.4	-1.8	5.0	/
COc1ccc(N2CCN(S(=O)(=O)c3c(C)nc4sccn4c3=O)CC2)cc1	/	i	84.4*	0.73	-1.0	-8.4	-2.4	1.8	1.4
Cc1ncc(CN2CCCC(CCC(=O)NCc3ccc(F)c(F)c3)C2)s1 (stereo not drawn)	?	i	0.3	0.647	2.4	5.0	1.6	-14.2	1.5
Cc1cc(C)nc(Sc2ccc(/C=C(\C#N)C(N)=O)o2)n1	/	i	-0.8	0.693	2.6	-5.2	-0.1	5.4	24.1
O=C(CN1C(=O)NC2(CCCC2)C1=O)Nc1ccc(Cl)c(C(F)(F)F)c1	/	i	-2.6	0.694	-11.0	-22.8	-1.6	5.5	-3.6
Cc1ccc(C)c(C(=O)CSc2nnnn2-c2cccnc2)c1	-4.4%	/	27.8	0.756	/	/	/	/	-1.2
CCCc1cc(=O)oc2cc(C)cc(OC(C)C(=O)NCCCN3CCOCC3)c12 (stereo not drawn)	-4.9%	i	-2.9	0.664	-1.5	1.2	-0.9	1.8	-0.5
Cc1ccc(-n2nc3c(=O)n(C(C)C(=O)NCc4ccc(Cl)cc4)nc(C)c3c2C)cc1 (stereo not drawn)	/	i	-1.3	0.657	-1.0	2.4	-0.5	-3.3	0.5
C[C@H](CO)N1C[C@H](C)[C@@H](CN(C)C(=O)NC2CCCCC2)Oc2ccc(NS(=O)(=O)c3ccc(Cl)cc3)cc2CC1=O	/	i	/	/	0.6	-6.5	0.3	-0.5	/
O=C(COC(=O)C1=COCCO1)NCc1ccc(F)cc1	/	i	-1.3	0.698	5.5	13.9	-0.2	-0.5	10.8
CCOc1cccc2cc(C(=O)NC(C)c3ccccc3)c(=N)oc12 (stereo not drawn)	-1.5%	i	/	0.659	11.0	12.1	-1.8	-1.1	-1.6
CCOC(=O)c1sc(NC(=O)C(C)Sc2nnc(N)s2)nc1C (stereo not drawn)	9.6%	i	/	0.672	14.8	12.1	2.6	5.8	1.9
Cc1ccnc(N(C(=O)Nc2ccccc2)C2=NCC(C)(C)S2)c1	-2.6%	i	0.5	0.64	13.1	15.5	-0.2	0.9	-3.9
O=C(C[C@H]1CC[C@@H](NC(=O)C2CC2)[C@H](CO)O1)Nc1nccs1	/	i	/	/	1.1	1.3	-0.2	-1.4	/
O=C(Cc1ccccc1)NC(NC(=O)Cc1ccccc1)c1cccc([N+](=O)[O-])c1	-11.2%	i	/	0.708	4.3	5.4	0.0	0.3	1.0
Cc1cccc(CSCCNC(=O)CN(c2cc(C)cc(C)c2)S(C)(=O)=O)c1	6.0%	i	/	0.715	-15.7	-21.4	19.6	-0.7	2.8
COc1ccc(NC(=S)Nc2ccccc2)c(OC)c1	5.1%	i	-10.7	0.652	12.8	8.5	-0.5	-1.7	1.7
C[C@H](CO)N1C[C@H](C)[C@H](CN(C)C(=O)CCCN(C)C)OCCCC[C@H](C)Oc2ccc(NC(=O)NC3CCCCC3)cc2C1=O	/	i	/	/	3.8	2.6	-3.1	0.9	/
CC(=O)c1sc(NC(=O)COc2c(C)cc(Cl)cc2C)nc1C	-4.2%	/	-5.1	0.675	/	/	/	/	/
COc1ccc(CNC(=O)C[C@@H]2C[C@@H]3c4cc(NC(=O)CN(C)C)ccc4O[C@@H]3[C@@H](CO)O2)cc1	/	i	/	/	0.9	-7.1	0.1	0.4	/
O=C(Nc1cccc(F)c1)N1CCCCN2[C@H](CO)[C@H](c3ccc(C#Cc4cccnc4)cc3)[C@H]2C1	/	i	/	/	-11.4	-31.9	4.0	3.7	/
CCOC(=O)C/C(C)=N/NC(=O)C1CC1(c1ccccc1)c1ccccc1 (stereo not drawn)	/	i	-7.0	/	14.8	9.3	3.4	-1.6	-1.6
COc1ccc(C2C3=C(CC(C)(C)CC3=O)N(CC(=O)O)C3=C2C(=O)CC(C)(C)C3)cc1OC	/	i	-10.9	0.628	7.3	7.1	0.9	-3.7	3.0

The list goes on; the last two above are carried over.
compound	Vif TR-FRET	FGF22 binding	ALR H2O2 inh	Ecoli growth	Ecoli rRNA inh	Ecoli rRNA inh OD600	Ecoli rRNA inh RFP	AF4-AF9 inh	HNF4A DNA FP
CCOC(=O)C/C(C)=N/NC(=O)C1CC1(c1ccccc1)c1ccccc1 (stereo not drawn)	/	i	-7.0	/	14.8	9.3	3.4	-1.6	-1.6
COc1ccc(C2C3=C(CC(C)(C)CC3=O)N(CC(=O)O)C3=C2C(=O)CC(C)(C)C3)cc1OC	/	i	-10.9	0.628	7.3	7.1	0.9	-3.7	3.0
O=C(Cc1cccs1)NCc1cn2ccccc2n1	11.9%	i	2.4	0.708	7.5	12.5	3.1	0.1	2.3
CO[C@H]1CN(C)C(=O)c2cccc(C#N)c2OCC[C@@H]2CC[C@@H](OC)[C@@H](CN(C)C(=O)[C@H]1C)O2	/	i	/	/	0.0	1.4	-0.6	-0.2	/
C[C@@H]1CN([C@H](C)CO)C(=O)CCCn2cc(nn2)CO[C@@H]1CN(C)S(=O)(=O)c1ccc(Oc2ccccc2)nc1	/	i	/	/	-0.7	-2.4	-0.6	-2.5	/
O=C(CN1CCC(C(=O)c2ccc3c(c2)OCCO3)CC1)Nc1ccccc1F	2.6%	i	2.3	0.675	-11.3	-21.9	0.1	-0.8	4.7
COc1cccc(C(C(=O)NC2CCCC2)N(C(=O)c2ccco2)c2ccc(NC(C)=O)cc2)c1OC (stereo not drawn)	-0.9%	i	/	0.689	1.6	6.8	1.6	-0.4	0.8
Cc1c2ccccc2nc2c(F)c(N(C)C)c(F)c(F)c12	15.7µM*	/	6.9	/	/	/	/	/	-58.2
CC(C)COc1ccc(C(=O)NCc2ccco2)cc1	?	/	59.2	0.73	/	/	/	/	0.0
c1cncc(CSc2nnc3ccc(-c4ccco4)nn23)c1	4.1%	/	-0.4	0.69	9.8	2.0	-9.0	1.6	-1.2
Cc1ccc(NC(=O)c2ccc(N3CCCC3=O)cc2)cc1S(=O)(=O)N1CCCCC1	-8.6%	i	1.1	0.709	12.2	15.3	-1.5	-3.0	4.7
CCCCCc1c(C)nc(NCc2ccccc2)[nH]c1=O	6.4%	/	-3.3	0.651	/	/	/	/	0.2
CN1C(=O)c2cc(NS(=O)(=O)c3cccc(F)c3)ccc2OC[C@@H]2O[C@@H](CC(=O)NCCN3CCCCC3)CC[C@@H]21	/	i	/	/	6.0	6.3	-0.2	-1.3	/
COc1ccccc1CN1CC(C(=O)NCCc2ccc(C)o2)CCC1=O (stereo not drawn)	3.4%	i	19.0	0.709	11.3	6.4	-2.6	-2.1	1.7
COCC(C)NCc1ccc(OC)c(Br)c1 (stereo not drawn)	4.5%	i	-0.5	0.67	21.8	10.0	4.3	-1.1	-2.2
Cc1cccnc1NC(=O)CCCN1C(=O)c2ccccc2C1=O	6.5%	+	-2.2	0.685	10.9	13.3	-3.7	6.6	1.3
CCCn1c(SCc2cc(=O)oc3ccc4ccccc4c23)n[nH]c1=O	5.9%	/	-23.2	0.719	/	/	/	/	1.8
CCN(Cc1ccc(C#CCCO)cc1)CC1CCCN(CCc2cccc(F)c2)C1 (stereo not drawn)	-8.4%	i	/	/	3.4	-0.8	0.9	10.4	-0.5
Cc1ccc(NC(=O)CCN2C(=O)CSC2=O)cc1	/	/	-3.3	0.738	0.4	7.6	0.3	/	-1.6
NC(=NC(=O)c1ccccc1)N1CCOCC1	-2.5%	i	2.4	0.67	10.8	3.2	0.3	-42.3	1.5
Cc1ccccc1C(=O)Nc1cccc(N)c1	2.2%	/	-3.1	0.737	/	/	/	/	1.2
O=C1CN(C(=O)c2ccc(Br)o2)C(c2ccccc2)c2cc(Cl)ccc2N1 (stereo not drawn)	-1.1%	i	-21.1	0.694	-20.1	-34.0	-3.1	8.2	-2.8
CCCNC(=O)N1[C@H](CO)[C@H]2c3ccccc3N(C(=O)Nc3cccc(F)c3)C[C@H]21	/	i	/	/	-8.5	3.1	1.2	-3.0	/
COc1ccc(Cc2c(-c3ccc(F)cc3)nc3cc(C)c(Br)c(C)n23)c(C)c1	/	i	/	/	9.7	12.1	37.6	-6.0	2.0
COc1cnn(-c2ccccc2)c(=O)c1N(C)C	-9.1%	/	4.6	0.682	/	/	/	/	-0.5
O=C1CSC(=Nc2ccccc2)N1Cc1ccccc1	6.3%	i	-0.5	0.719	1.0	0.1	0.7	-2.6	0.3
O=C(Cn1nc(Cc2cccnc2)c2ccccc2c1=O)NCC1CCCO1 (stereo not drawn)	2.9%	i	98.0*	0.719	5.2	7.6	-1.8	5.5	0.2

Continuation:
compound	Vif TR-FRET	FGF22 binding	ALR H2O2 inh	Ecoli growth	Ecoli rRNA inh	Ecoli rRNA inh OD600	Ecoli rRNA inh RFP	AF4-AF9 inh	HNF4A DNA FP
COc1cc(C2C3=C(CCCC3=O)Nc3ccc4ncccc4c32)ccc1O (stereo not drawn)	/	i	14.3	0.681	0.2	0.5	1.1	2.4	1.8
CCC(C)C(=O)Nc1nnc(SCC(=O)NC2CCCCC2)s1 (stereo not drawn)	-0.5%	i	-6.2	0.708	4.6	-0.9	-3.7	-0.5	-2.5
CC1CC(C)CN(C(=O)Cc2c(C(=O)O)[nH]c3ccc(Cl)cc23)C1 (stereo not drawn)	-2.5%	i	-0.2	0.703	-17.4	-20.2	-6.2	-6.3	0.0
Cc1ccc(CN2CC(C(=O)Nc3ccc(C)c(S(=O)(=O)N4CCCCC4)c3)CC2=O)cc1 (stereo not drawn)	/	i	/	0.691	-33.0	-61.2	18.5	0.1	6.9
Cc1nnc(SCC(=O)N(C)Cc2ccccc2)[nH]c1=O	?	/	10.7	0.73	/	/	/	/	-4.8
O=C(N[C@H]1CC[C@@H](CCNC(=O)C2CCCC2)O[C@@H]1CO)c1ccncc1	/	i	/	/	0.5	0.9	0.0	0.7	/
COc1cccc(CN2CCN(C3CCN(c4ccccc4C)CC3)CC2CCO)c1 (stereo not drawn)	/	i	10.8	0.695	8.2	-6.5	-1.6	4.2	-0.8
C[C@@H]1CN([C@@H](C)CO)C(=O)c2cccc(NC(=O)C3CCOCC3)c2O[C@@H]1CN(C)Cc1ccc(C(F)(F)F)cc1	/	i	/	/	4.0	-1.3	-1.4	-2.2	/
COc1ccc(OCC(=O)O/N=C(\N)Cc2cccs2)cc1	/	i	-35.4	0.696	-0.6	5.1	7.9	-4.2	1.4
CCOC(=O)N1CCC(NC(=O)CCc2nc(-c3ccccc3F)no2)CC1	26.3%	/	/	0.738	/	/	/	/	-0.1
O=C(NCCc1ccccc1F)N[C@@H](Cc1ccccc1)C(=O)O	-11.0%	i	5.9	0.673	20.6	24.5	1.1	2.4	-1.9

Assay outcomes deposited in PubChem by several laboratories.

A portion of the library. The share of hits here may be higher or lower than overall.
